SARS PLP yeast: SARS-CoV PLP inhibition in yeast. S. cerevisiae expressing SARS-CoV PLpro, growth rescue; control for the full effect not named in the record. Potency, µM (highest dose often 32.9 µM), for inactives: at the highest dose activity, positive = growth rescue. hit rate 0.19% among 330,000. AID 485353; note: 0% is about no effect; nearly all actives have a fitted effect of over 55% in size; growth read by luminescence after 48 h
Cruzain Triton: blocks cruzain activity in presence of Triton detergent | P25779 | purified cruzain, Z-FR-AMC fluorescence, 0.01% Triton | Potency, µM, for inactives: max response, negative = inhibition, most hits filed as inhibitors | hit rate 0.43% among 200,000; active = well fitted curve in the direction sought with a large enough effect; inconclusive = small, poorly fitted or top-dose-only effect, or another doubt; inactive = no such curve, though single readings can be large; an effect the other way counts as inactive or inconclusive;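 note: plate controls were neutral wells for no effect and buffer without enzyme for full effect; nearly all actives have a fitted effect of over 40% in size; top concentration of the series not given in the record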
Target sequence (P25779 123-467 limits assumed): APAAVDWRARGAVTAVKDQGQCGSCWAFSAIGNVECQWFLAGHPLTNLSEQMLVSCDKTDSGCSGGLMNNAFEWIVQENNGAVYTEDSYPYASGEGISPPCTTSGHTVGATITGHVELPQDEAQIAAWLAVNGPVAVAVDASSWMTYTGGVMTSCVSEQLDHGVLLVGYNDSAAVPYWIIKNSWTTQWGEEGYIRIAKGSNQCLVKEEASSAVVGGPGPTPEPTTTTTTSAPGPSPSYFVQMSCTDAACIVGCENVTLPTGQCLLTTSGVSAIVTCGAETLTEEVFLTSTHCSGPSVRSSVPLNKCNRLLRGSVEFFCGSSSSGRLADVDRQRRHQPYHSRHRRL
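Enzyme 1.5 nM, Z-FR-AMC 2 uM, NaOAc 100 mM pH 5.5, DTT 5 mM, Triton X-100 0.01%; 15 min RT compound preincubation; kinetic ex360/em450, 60 s delta.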
StopGo reporter: FMDV 2A StopGo reporter, luciferase signal | human cells with a luciferase reporter of 2A StopGo recoding; control for the full effect not named in the record | Potency, µM (top dose mostly 57.9 µM), for inactives: at the highest dose signal change, negative = less light | hit rate 1.2% among 410,000; active = well fitted falling curve with a large enough effect; inconclusive = small, poorly fitted or top-dose-only effect; inactive = no such curve, though single readings can be large or run the other way; tested in HEK293T cells; note: % is set by controls: 0 for no effect and ±100 for the full control effect; nearly all actives have a fitted effect of over 45% in size; luciferase light after 4 h
Lassa entry inh: Lassa virus entry inhibition | hit rate 1.2% among 300,000 | Potency, µM (series often up to 37.9 µM), inactives show at the highest dose activity change, negative = inhibition, usual class: inhibitors | Lassa virus pseudotype entry inhibition, cell reporter; control for the full effect not named in the record; active means well fitted inhibition curve with a large enough effect; inconclusive means small, poorly fitted or top-dose-only effect, or effect the other way; inactive means flat fitted curve, though single readings scatter; tested in HEK293 cells; note: % is set by controls: 0 for no effect and ±100 for the full control effect; nearly all actives have a fitted effect of over 50% in size; luciferase read-out
RE007 growth inh: less growth of the S. pombe RE007 Vpr strain. S. pombe RE007 Vpr strain, BacTiter-Glo ATP luminescence, 24 h; control for the full effect not named in the record. Potency, µM (series often up to 92.2 µM), inactives show at the highest dose activity change, negative = less growth. hit rate 0.21% among 360,000; active = well fitted falling curve with a large enough effect; inconclusive = small, poorly fitted or top-dose-only effect; inactive = no such curve, though single readings can be large or run the other way;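 note: % is set by controls: 0 for no effect and ±100 for the full control effect; nearly all actives have a fitted effect of over 50% in size; the assay follows cell death caused by Vpr and the record does not say whether a fall means rescue or toxicity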
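Fission yeast strain RE007, carrying one chromosomally integrated HIV-1 vpr copy, was seeded at OD 0.01 in PMG+AL medium with 23 nL pinned compound. After 24 h at 30 °C and 99% humidity, viability was read by BacTiter-Glo luminescence.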
Cruzain inh noDet: blocks cruzain activity in detergent-free assay. P25779. AID 1476. Potency, µM, without a hit: max response, negative = inhibition, hits mostly inhibitors. hit rate 2.3% among 200,000. purified cruzain, Z-FR-AMC fluorescence, no detergent; active = well fitted curve in the direction sought with a large enough effect; inconclusive = small, poorly fitted or top-dose-only effect, or another doubt; inactive = no such curve, though single readings can be large; an effect the other way counts as inactive or inconclusive;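 note: plate controls were enzyme without inhibitor for no effect and buffer without enzyme for full effect; nearly all actives have a fitted effect of over 40% in size; top concentration of the series not given in the record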
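Purified cruzain at 1.5 nM, pre-incubated 15 min with compound at room temperature in 100 mM sodium acetate pH 5.5, 5 mM DTT, 0.00005% Triton X-100. Reaction started with 2 uM Z-FR-AMC; AMC fluorescence increase over 60 s gives rate.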
NS1 inh: blocks influenza NS1 protein function; hit rate 0.4% among 270,000; S. cerevisiae slowed by influenza A NS1, growth recovery by OD600; Potency, µM (top dose mostly 46.1 µM), inactives show at the highest dose activity, positive = more growth; note: actives are rising curves; nearly all actives have a fitted effect of over 50% in size
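A cell-based growth assay was used: compounds that relieve NS1-induced slow growth of budding yeast raise OD600. Assay medium was yeast nitrogen base with ammonium sulphate and -URA supplement, pH 6.0, with 2% galactose.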
MARV entry inh: inhibitors of Marburg virus binding or cell entry | Potency, µM (highest dose often 37.8 µM), for the others: at the top dose activity change, negative = inhibition, most hits filed as inhibitors | AID 540276 | Marburg virus pseudotyped entry inhibition, cell reporter; control for the full effect not named in the record; about a third of the inactives were read at about 46 µM | hit rate 1.8% among 300,000; active = well fitted inhibition curve with a large enough effect; inconclusive = small, poorly fitted or top-dose-only effect, or effect the other way; inactive = flat fitted curve, though single readings scatter; tested in HEK293 cells; about a fifth of its hits are not listed in these tables; note: % is set by controls: 0 for no effect and ±100 for the full control effect; luciferase read-out
The depositor's hits bear a star; ? = inconclusive; · = no result given; & = joins results of further samples; [ ] = dose if it differs, or a comment. Unless noted, calls come from the whole dose curve; as a rule, active means well fitted rising curve with a large enough effect; inconclusive means small, poorly fitted or top-dose-only effect; inactive means no such curve, though single readings can be large or run the other way. Potency is the fitted concentration of half-maximal effect.

| structure | SARS PLP yeast | Cruzain Triton | StopGo reporter | Lassa entry inh | RE007 growth inh | Cruzain inh noDet | NS1 inh | MARV entry inh |
| --- | --- | --- | --- | --- | --- | --- | --- | --- |
| O=C(CNC(=O)c1cccs1)N/N=C/c1c(F)cccc1Cl | 21% | · | -4% | 12% | -12% | · | -3% | 19% |
| Cc1cc(N2CCN(c3cccc(C(F)(F)F)c3)CC2)n2nc(-c3ccccc3)nc2n1 | · | 0.1% | -30% | -2%[46.1 µM] | · | -3% | · | 3%[46.1 µM] |
| NC(=O)COC(=O)CNC(=O)c1ccc(Cl)cc1 | 4% | ? | 1% | 3% | -13% | -22% | 0% | 11% |
| CC1(C)Cc2c(sc(NC(=O)C(=O)N3CCN(CCO)CC3)c2C(N)=O)CO1 | 1% | · | 0% | · | 1% | · | 1% | · |
| CCC(=O)N1CCC2(CC1)Oc1ccc(F)cc1C(=O)C21CC(c2ccccc2)=NO1 (stereo not given) | -1% | · | -15% | · | 5% | · | -3% | · |
| O=C(c1ccc(CS(=O)(=O)Cc2ccc(Cl)cc2)o1)N1CCCC1 | 7% | 5.2% | -22% | -3% | 5% | 4% | -22% | 12% |
| COc1ccc(Cc2nnc(N/N=C/c3ccc(Br)cc3)[nH]c2=O)cc1OC | -1% | · | 1% | · | 0% | · | 6% | · |
| COc1cccc(Nc2nc(-c3sc(N)nc3C)cs2)c1 | -4% | ? | 39%[activator] | 30% | 2% | 13µM* | -82% | ? |
| O=Cc1ccc(OC2OCCOC2Oc2ccc(C=O)cc2)cc1 (stereo not given) | -5% | -5.7% | -24% | 2% | 23% | -10% | -4% | 17% |
| Cc1ccc(-c2nc3ncccc3o2)cc1NC(=O)c1cc2ccccc2o1 | -5% | -3.2% | ? | 2% | -4% | 6% | 3% | -15% |
| COc1ccccc1NS(=O)(=O)c1ccc(C)c(NC(=O)NC2CCCCC2)c1 | 14% | -0.1% | -21% | ? | -25% | 1% | ? | ? |
| O=C(COC(=O)c1ccccc1Oc1ccccc1)NC1CC1 | -1% | · | -4% | -13%[46.1 µM] | 6% | · | · | -1%[46.1 µM] |
| Cc1c(NS(=O)(=O)c2cccs2)cccc1-c1nc2cccnc2s1 | 4% | · | -20% | · | -18% | · | -11% | · |
| O=C(NCc1ccccc1)C1=C[C@@H](C2CCCCC2)C[C@@H](OCc2ccc(CO)cc2)O1 | 0% | · | ? | · | 8% | · | 8% | · |
| CCOC(=O)CC(NC(=O)CCc1c(C)nc2ncnn2c1C)c1ccc(OC(C)C)cc1 (stereo not given) | -1% | 1.9% | -7%&0% | -8%&7%[46.1 µM] | 5% | 8% | · | 14%&4%[46.1 µM] |
| O=C(C1COc2ccccc2O1)N(Cc1cccnc1)c1nc2ccc(Cl)cc2s1 (stereo not given) | · | -2.2% | 12% | 26%[46.1 µM] | · | -19% | · | · |
| CCOC(=O)C1CSC(CC(=O)Nc2ccc(OC(F)(F)F)cc2)C(=O)N1 (stereo not given) | 1% | · | -17% | 29%[46.1 µM] | -6% | · | 2% | 17%[46.1 µM] |
| COc1cccc2c1C(=O)c1c(O)c3c(c(O)c1C2=O)CC(O)(C(C)=O)CC3OC1CC(N(C)C)C(O)C(C)O1 (stereo not given) | · | · | 1% | ? | -13% | · | · | ? |
| Cc1noc(C)c1C(=O)Nc1nc(-c2cc(F)ccc2F)cs1 | 0% | · | 9% | ? | -11% | · | · | 2%[46.1 µM] |
| CCN(c1ccccc1)S(=O)(=O)c1ccc(NC(=O)C(C)(C)C)cc1 | -26% | -6.9% | -8% | 15µM* | 7% | -5% | 0% | 3% |
| CC(C)(Oc1ccc(Cl)cc1)C(=O)OCc1nc2ccsc2c(=O)[nH]1 | -4% | · | -8% | 7% | 5% | · | · | -19% |
| CC(C)(C)C(=O)c1cn(CC(=O)NCc2ccc3c(c2)OCO3)c2ccccc12 | -4% | -17% | 34%[activator] | ? | -1% | -2% | 2% | -10% |
| COc1ccc(CN2C(=O)c3ccccc3C2=O)cc1C(=O)O | 0% | · | -13% | · | 1% | · | 4% | · |
| Cc1ccc(CNC(=O)c2c[nH]c3ccc(S(=O)(=O)N4CCOCC4)cc3c2=O)cc1 | · | -1.9% | -8% | · | · | -5% | · | · |
| CC(=O)c1ccccc1OCc1ccc(C(=O)c2ccccc2)cc1 | -7% | · | ? | · | 1% | · | -30% | · |

In another format: entries from further up
Value order – SARS PLP yeast, Cruzain Triton, StopGo reporter, Lassa entry inh, RE007 growth inh, Cruzain inh noDet, NS1 inh, MARV entry inh
> CC(C)(Oc1ccc(Cl)cc1)C(=O)OCc1nc2ccsc2c(=O)[nH]1
  -4%, ·, -8%, 7%, 5%, ·, ·, -19%
> COc1ccc(CN2C(=O)c3ccccc3C2=O)cc1C(=O)O
  0%, ·, -13%, ·, 1%, ·, 4%, ·

(more compounds)
| structure | SARS PLP yeast | Cruzain Triton | StopGo reporter | Lassa entry inh | RE007 growth inh | Cruzain inh noDet | NS1 inh | MARV entry inh |
| --- | --- | --- | --- | --- | --- | --- | --- | --- |
| Cc1nnc(SCCn2c(N3CCCCCC3)nc3c2c(=O)[nH]c(=O)n3C)s1 | -2% | 3.3% | 0% | 16% | 7% | -2% | -5% | 9%&9% |
| Cc1ccc(CN2C(=O)CCC2C(=O)NCCN2CCN(c3cccc(Cl)c3)CC2)cc1 (stereo not given) | 1% | · | -15% | -11% | -10% | · | -13%&-2% | ? |
| CN(CCO)c1ccc(C=NNc2ccc([N+](=O)[O-])cc2S(=O)(=O)Nc2ccccc2C(=O)O)cc1 | 0% | · | 0% | -9% | -16% | · | · | ? |
| COc1cccc(Cn2c(=O)sc3ccccc3c2=O)c1 | -2% | · | 20% | -6%[46.1 µM] | -26% | · | · | ? |
| CNC(=O)COC(=O)c1ccccc1Nc1ccccc1 | 0% | · | 12% | 3% | 11% | · | -5% | ? |
| O=C(NCc1ccco1)C1Cc2cc(Cl)ccc2O1 (stereo not given) | -8% | · | -5% | -25% | -12% | · | -15% | -2%[46.1 µM] |
| Cc1cccc(N=C2C(=O)Nc3c(Cl)cccc32)c1 | -7% | · | 15% | · | -5% | · | -27% | · |
| CCOC(=O)c1sc2nc[nH]c(=O)c2c1C | 0% | 1.9% | 18% | 17% | -6% | -4% | -13% | -9% |
| CCN1CCN(CCCNC(=O)c2ccc(NC(=O)C3=C(C)OCCS3)cc2)CC1 | -1% | · | 6% | · | -1% | · | -7% | · |
| NC(=O)c1nsc(C(=O)N(c2cccc(F)c2)C(C(=O)NCc2ccccc2)c2ccc(O)cc2)c1N (stereo not given) | 5% | · | 0% | ? | 2% | · | 1% | ? |
| CN(CCc1ccccn1)C(=O)c1ccc(OC(F)(F)F)cc1 | -3% | · | -7% | -7%[46.1 µM] | 11% | · | · | 10%[46.1 µM] |
| COc1ccccc1Nc1ncc(C(C)=O)c(C)n1 | 13% | 1.9% | 40%[activator] | 29% | -20% | 4% | -5% | 0% |
| O=C(Nc1ccc(Br)cc1)N1CCCCCC1 | ? | · | 93%[activator] | · | 10% | · | 17% | · |
| COc1ccc(/C=C2\COc3ccccc3C2=O)c(OC)c1 | -7% | · | 30%[activator] | -27%[46.1 µM] | -6% | · | -31% | ? |
| Cc1cc(Cl)c(S(=O)(=O)Nc2ccc(S(=O)(=O)N3CCOCC3)cc2)cc1OCC(N)=O | 0% | · | 15% | · | -5% | · | 2% | · |
| CCc1ccc(CNCc2c(C(=O)O)n(Cc3ccc(F)cc3Cl)c3cc(OC)ccc23)cc1 | · | -3.7% | -19% | -14%[46.1 µM] | · | 5% | · | · |
| CCOC(=O)c1ccc(CNS(=O)(=O)c2c(C)ccc3nsnc23)o1 | 2% | 0.3% | -11% | -9% | -1% | 0% | 10% | 13% |
| O=c1cc(CSc2nnc(C3CC3)n2Cc2ccccc2)nc2sccn12 | -1% | · | 14% | -2% | -9% | · | · | -8% |
| CCCCOCCCNCc1cccn1CCN1CCOCC1 | -4% | · | -16% | ? | -4% | · | -4% | 4% |
| NS(=O)(=O)c1cccc(NC(=O)CN2CCN(S(=O)(=O)c3ccc4c(c3)OCCO4)CC2)c1 | -3% | · | 0% | -1%[46.1 µM] | 13% | · | · | -18%[46.1 µM] |
| O=C1NC(=O)/C(=C/c2ccc(O)cc2)S1 | -2% | · | 50%[activator] | -13% | 1% | · | -5% | 9% |
| CCOc1ccccc1CN1CCN(Cc2nc3ccccc3s2)CC1CCO (stereo not given) | 1% | · | 6% | · | 6% | · | -1% | · |
| COc1ccc(-c2[nH]ncc2CN2CCC(OCc3ccccn3)CC2)c(F)c1 | -1% | · | -14% | · | 1% | · | 2% | · |
| CCCC1=C(C(=O)OCC)C(c2ccco2)n2ncnc2N1 (stereo not given) | -3% | · | 2% | · | 0% | · | 6% | · |
| O=C(c1ccccc1)N1CCCCC(S(=O)(=O)c2ccc3ccccc3c2)C1=O (stereo not given) | 0% | 2.6% | -11% | 7% | 13% | -5% | 2% | -8% |
| COc1ccc(C(=O)O)cc1S(=O)(=O)N1CCN(Cc2ccc3c(c2)OCO3)CC1 | -1% | · | -2% | -10%[46.1 µM] | 7% | · | · | ? |

Complete entries as entered above. Values in the order: SARS PLP yeast | Cruzain Triton | StopGo reporter | Lassa entry inh | RE007 growth inh | Cruzain inh noDet | NS1 inh | MARV entry inh
Entry for COc1cccc(Nc2nc(-c3sc(N)nc3C)cs2)c1 = -4% | ? | 39%[activator] | 30% | 2% | 13µM* | -82% | ?
Entry for CC1(C)Cc2c(sc(NC(=O)C(=O)N3CCN(CCO)CC3)c2C(N)=O)CO1 = 1% | · | 0% | · | 1% | · | 1% | ·
Entry for O=C1NC(=O)/C(=C/c2ccc(O)cc2)S1 = -2% | · | 50%[activator] | -13% | 1% | · | -5% | 9%
Entry for O=C(C1COc2ccccc2O1)N(Cc1cccnc1)c1nc2ccc(Cl)cc2s1 (stereo not given) = · | -2.2% | 12% | 26%[46.1 µM] | · | -19% | · | ·

Rows are unselected; about 4.8% have a hit in one of these screens.
